# GIV Gai3 FP – GIV-Galpha-i interaction inhibition; P08753; Galpha-i3/FITC-GIV peptide fluorescence polarization, 90 min; active compounds read low; scaled: aluminum fluoride 0%, vehicle 100%; percent of control (FP), % (concentration not given with the values); 210,000 compounds, 0.42% hits; AID 1224905;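 active = replicate mean at 85% of control or lower, very high polarization wells dropped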;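 note: wells of about 15 µL received 100 nL stock; the first replicate is given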
# Target sequence (P08753 whole entry, looked up): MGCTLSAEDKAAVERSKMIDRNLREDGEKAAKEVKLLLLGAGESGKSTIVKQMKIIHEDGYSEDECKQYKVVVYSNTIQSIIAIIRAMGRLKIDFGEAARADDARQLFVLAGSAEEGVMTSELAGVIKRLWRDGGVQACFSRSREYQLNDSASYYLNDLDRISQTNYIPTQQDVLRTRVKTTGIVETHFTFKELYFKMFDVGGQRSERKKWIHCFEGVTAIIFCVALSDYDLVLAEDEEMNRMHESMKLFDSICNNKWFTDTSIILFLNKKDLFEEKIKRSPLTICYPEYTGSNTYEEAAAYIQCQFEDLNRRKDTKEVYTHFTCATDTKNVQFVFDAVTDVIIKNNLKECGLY
# An asterisk follows results filed as active. Only part of the results is shown. The share of hits here may be higher or lower than overall.
molecule,GIV Gai3 FP
Cc1cc(C)c2c(c1)CC(C)(C)c1nc3cc(C)ccc3nc1-2,111
CCOC(=O)N1CCN(c2nc(-c3ccccc3F)nc3ccccc23)CC1,103
CCN(CC)C(=O)c1ccc(-c2nc3cc(NS(=O)(=O)c4cc(F)ccc4F)ccc3n2C)cc1,99
COc1ccc(NC(=O)C2CCN(c3cc(C)nc4cc(-c5ccc(C)cc5)nn34)CC2)cc1OC,109
COc1ccc(C2=N/C(=C\c3ccc(OC)c(OC)c3)C(=O)O2)c(Br)c1,109
COc1cc(C2Nc3ccc4ccccc4c3C3=C2C(=O)CC(C)(C)C3)ccc1OCc1c(F)cccc1Cl (stereo not drawn),129
C=CCn1c(=O)c(N2CCC(NC(=O)NCC3CCCO3)CC2)nc2cccnc21 (stereo not drawn),104
CNc1nc(Nc2cccc(F)c2)c2cnn(-c3ccccc3)c2n1,99
CCc1ccc(NC(=O)c2cc(S(=O)(=O)N3CCC(Cc4ccccc4)CC3)ccc2F)cc1,105
CCOC(=O)c1c(NC(=O)Cn2c(-n3nc(C)cc3C)nc(C)c(C)c2=O)sc2c1CCC2,109
COc1ccc(C(N)=O)cc1NC(=O)c1ccc2c(=O)n(-c3ccc(OC)c(OC)c3)c(=S)[nH]c2c1,121
COc1ccc(CCNC(=O)CSc2ncnc3sc4c(c23)CCCC4)cc1OC,98
COc1ccc(CCNC(=O)CSc2nc3ccccc3c(=O)n2NC(=O)CCc2c[nH]c3ccccc23)cc1OC,119
Cc1ccc(C)c(N2CCN(S(=O)(=O)c3cc(-c4csc(C)n4)sc3C)CC2)c1,112
CCSc1sc(CC)cc1C1C(C(=O)Nc2cccc(C)n2)=C(C)NC2=C1C(=O)CCC2 (stereo not drawn),98
Cc1ccc(-c2nc3cccc(C)c3nc2-c2ccc(C)cc2)cc1,98
CCCc1cc(Sc2ccc(NC(=O)Nc3ccc(Br)cc3)cc2)n2ncnc2n1,110
COc1cccc(NC(=O)c2sc3nc4c(c(-c5ccco5)c3c2N)CCCCC4)c1,108
COc1ccc(Br)cc1S(=O)(=O)N1CCCN(S(=O)(=O)c2cc(Br)ccc2OC)CC1,112
O=C(CSc1nc2ccccc2c(=O)[nH]1)Nc1cccc(Cl)c1,105
CCOC(=O)CSC1=NS(=O)(=O)c2ccccc2N1,101
CCOC(=O)c1cc2c(nc1C)-c1ccccc1C2=Nc1cccc2ccccc12,100
CCCCCn1c(SCc2nc(-c3ccccc3)no2)nc2cc3c(cc2c1=O)OCO3,107
CCOc1cccc2c1OC1(CCCCC1)N1N=C(c3cccs3)CC21 (stereo not drawn),114
CCCCC(=O)Nc1cnc(N2CCN(CCOc3ccc(Cl)cc3)CC2)c(C(=O)O)c1,108
Cc1ccc(C(=O)N/C(=C/c2ccccc2F)C(=O)NCc2ccco2)cc1,106
CN(C)C(=O)C1CCCN(Cc2cccn2C)C1 (stereo not drawn),99
Cc1cc(C)c(-n2nnnc2SCc2nc(N)nc(N3CCOCC3)n2)c(C)c1,107
O=C(CCc1nc(-c2ccc(S(=O)(=O)N3CCCC3)cc2)no1)Nc1ccc(F)cc1,103
COc1cc(OC)c(NC(=O)c2sc3ncn(CC(=O)Nc4ccccc4OC)c(=O)c3c2C)cc1Cl,108
Cc1ccc(-c2noc(-c3ccc(=O)n(CC(=O)Nc4ccc(C(C)C)cc4)c3)n2)cc1,104
COC(=O)CNC(=O)C(Cc1c[nH]c2ccccc12)NC(=O)OCc1ccccc1 (stereo not drawn),104
CCCCCCCCOc1ccc(-n2c(-c3ccc(Cl)cc3)cn3c4c(=O)n(C)c(=O)n(C)c4nc23)cc1,107
CCC(=O)Nc1cnc(N2CCN(C(c3ccccc3)c3ccc(Cl)cc3)CC2)c(C(=O)O)c1 (stereo not drawn),116
O=C1c2ccccc2Sc2cc(-c3noc(-c4ccncc4)n3)ccc2N1C1CCCC1,100
COc1ccc(OC)c(-c2csc(Nc3ccc(C)cn3)n2)c1,102

# Random excerpt: 3 entries already listed.
molecule,GIV Gai3 FP
COC(=O)CNC(=O)C(Cc1c[nH]c2ccccc12)NC(=O)OCc1ccccc1 (stereo not drawn),104
COc1ccc(OC)c(-c2csc(Nc3ccc(C)cn3)n2)c1,102
Cc1cc(C)c(-n2nnnc2SCc2nc(N)nc(N3CCOCC3)n2)c(C)c1,107

# Further structures:
molecule,GIV Gai3 FP
COc1cccc(NC(=O)N2CCC(n3cnc4ccccc4c3=O)CC2)c1,110
CCNC(=O)N1CCCC(c2nc(C)cs2)C1 (stereo not drawn),105
CC(C)c1ccc(S(=O)(=O)c2cnc(N3CCC4(CC3)OCCO4)nc2N)cc1,106
O=C(CSc1nc(=O)n(Cc2ccncc2)c2c1CCC2)N1CCc2ccccc21,110
CCCN(CCC)S(=O)(=O)c1cc(-c2nnc(C)o2)co1,106
CSC1=NC(=Nc2c(C)cccc2C)C2(CCC(C(C)(C)C)CC2)N1c1ccc(Cl)cc1 (stereo not drawn),101
CCNc1cc(C)nc(Nc2ccc(NS(=O)(=O)c3ccc(F)cc3)cc2)n1,109
CC1CCN(Cc2c(O)ccc3c4c(c(=O)oc23)CCC4)CC1,130
Cc1ccc(Nc2nc(C3(C)CC4(CC(C)OC4=O)C(=O)O3)cs2)cc1 (stereo not drawn),122
COc1ccc(C2/C(=C(/O)c3ccc(C)cc3)C(=O)C(=O)N2c2ccc(O)cc2)cc1 (stereo not drawn),105
O=c1c(Oc2ccccc2Br)c(C(F)(F)F)oc2c(CN3CCCC3)c(O)ccc12,100
CCOC(=O)c1c(NC(=O)C(C)Sc2nnc(CNC(=O)c3cccs3)n2C2CCCCC2)sc2c1CCCC2 (stereo not drawn),109
CC(=O)Nc1ccc(-n2c(/C=C\c3ccc(F)c(F)c3)nc3ccccc3c2=O)cc1,108
CCSc1nnc(-c2nn(C)c3c2CN(S(=O)(=O)c2cc(F)ccc2F)CC3)n1CC,106
O=C(Nc1ccc(Cl)c(Cl)c1)/C(=C\c1ccc2c(c1)OCO2)NC(=O)c1ccccc1Br,111
O=S(=O)(NC1CCCCC1)c1ccc(-c2nnc(C3CC3)o2)o1,101
CCOc1ccc(C2C(N3C(=O)c4ccccc4C3=O)C(=O)N2c2ccc(C)cc2)cc1 (stereo not drawn),108
COc1cc(C(C2=C(O)CC(C)(C)CC2=O)C2C(=O)CC(C)(C)CC2=O)ccc1O (stereo not drawn),109
Cc1cccc(C(=O)Nc2cnc3oc(-c4ccccc4OC(C)C)nn3c2=O)c1,106
CCOC(=O)C1CCN(c2ccc([N+](=O)[O-])cc2C(=O)Nc2cc(OC)cc3cccnc23)CC1,116
O=C1C2N=NN(c3ccccc3)C2C(=O)N1c1ccccc1 (stereo not drawn),104
CCOc1cc(C2NC(=O)NC(C)=C2C(=O)Nc2ccccc2C)ccc1O (stereo not drawn),100
COc1ccc(C2(c3ccc(OC)cc3)C=Cc3c(ccc4cc(OC)ccc34)O2)cc1,111
COc1ccc(-c2cc(C(F)(F)F)n3ncc(C(=O)N4CCN(c5ccccc5)CC4)c3n2)cc1OC,111
O=C(Nc1ccccc1Br)c1cc(S(=O)(=O)NCc2ccc3c(c2)OCO3)ccc1F,110
O=C1C2C3C=CC(CO)(O3)C2C(=O)N1c1ccc(F)cc1 (stereo not drawn),102
O=C(c1nnc(-c2csc(S(=O)(=O)NC3CC3)c2)o1)N1CCCCC1,100
CN1/C(=C\C=[N+](C)c2ccccc2)C(C)(C)c2cc(Cl)ccc21,107
O=C(Nc1nc2c(s1)CN(S(=O)(=O)c1ccccc1)CC2)c1ccoc1,101
CCc1nnc(NC(=O)CSc2cc(C)[nH]c(=O)n2)s1,111
CCOc1ccccc1N1CCN(C(=O)C2CCCN(c3nccc4sc(C)cc34)C2)CC1 (stereo not drawn),114
COc1cc(OC)c(NC(=O)N2CCCN(c3nc4cc(F)ccc4n4cccc34)CC2)cc1Cl,98
COC(=O)C1=C(N)N(c2ccc(S(N)(=O)=O)cc2)C2=C(C(=O)CC(C)(C)C2)C1c1ccc(OC)c(OC)c1 (stereo not drawn),109
COc1ccccc1CNc1nc(-c2ccccc2F)nc2ccccc12,111
COc1ccc(C(=O)Nn2c(SCc3cccc([N+](=O)[O-])c3)nc3ccccc3c2=O)cc1,106
CCn1cc(CN2CCC(C(=O)NCCCOC)CC2)c2cc(OC)ccc21,107
CC1SC2(C(=O)Nc3ccccc32)N(c2ccc(Cl)c(Cl)c2)C1=O (stereo not drawn),109
O=S(=O)(c1cc(-c2nnc(C3CCCC3)o2)co1)N1CCC(N2CCCCC2)CC1,103
Cc1ccc(-c2c(NC3CCCC3)c(=O)c2=O)cc1,95
O=c1c([N+](=O)[O-])c(NC2CCCCC2)c2ccccc2n1-c1ccccc1,102
NC(=O)C1CCN(C(=O)c2ccc3c(=O)n(C4CCCCC4)c(SCc4cc(F)ccc4F)nc3c2)CC1,110
O=C1NC(=O)/C(=C\c2c(OCc3ccc([N+](=O)[O-])cc3)ccc3ccccc23)N1,111
Cc1sc(-c2cc(C(F)(F)F)on2)cc1S(=O)(=O)NCC(C)c1ccccc1 (stereo not drawn),103
CC(=O)Oc1ccc(C2Nc3ccc(C(C)=O)cc3C3C=CCC32)c(OC(C)=O)c1 (stereo not drawn),107
CCn1c(C)c(CN2CCC(C(=O)N3CCCC3)CC2)c2ccccc21,102
Cc1ccc2c(c1)[C@H]1OCCC[C@H]1C(c1ccc(C(=O)O)cc1)N2 (stereo partly drawn),106
Cc1cccc(N2C(=O)/C(=C/C=C\c3ccccc3)S(=O)(=O)C2c2cccc([N+](=O)[O-])c2)c1 (stereo not drawn),103
CCCCCCN1C(=O)C(=O)/C(=C(/O)c2ccccc2)C1c1ccc(Br)cc1 (stereo not drawn),116
CCCc1c(C)nc2ncnn2c1Sc1ccc(N)cc1,100
O=C(NCc1ccccc1)C1CCCN(C(=O)C2Sc3ccccc3NC2=O)C1 (stereo not drawn),102
CC(C)CNC(=O)N1CCC(N2CCN(Cc3ccc(F)cc3)C(=O)C2=O)CC1,102
O=C(Nc1ccc(-c2nnc(-c3ccccc3)o2)cc1)Nc1cccc(Br)c1,110
O=[N+]([O-])c1ccc2c(c1)S(=O)(=O)c1cc([N+](=O)[O-])ccc1-2,111
CCc1noc(Cn2ccnc2C)n1,103
CCCCNC(=O)CSc1nc2ccccc2n1S(=O)(=O)c1ccc(Cl)cc1,119
O=C(CSc1n[nH]c(-c2ccncc2)n1)c1ccc(O)c(O)c1,99
CN(CCc1noc(-c2ccc(C(=O)N3CCOCC3)cc2)n1)C(=O)C1CC1,109
Cc1nc(N2CCN(C)CC2)c2c(C)c(C(=O)Nc3ccc(Br)cc3C)sc2n1,95
COCCCNS(=O)(=O)c1cc(-c2nc(C(C)(C)C)cs2)cs1,102
O=C(c1nnc(-c2csc(S(=O)(=O)NCCC3=CCCCC3)c2)o1)N1CCCC1,102

# Additional results.
molecule,GIV Gai3 FP
C=CCNC(=O)c1ccc2c(c1)[nH]c(=S)n1c3ccccc3nc21,121
CCCN1CCN(C(=O)C2CCN(c3cnc(N4CCSCC4)nc3)CC2)CC1,92
Cc1cc(NC(=O)Cn2nc3c4sc(N(C)C)nc4ncn3c2=O)ccc1Br,100
COc1ccc(CCn2c(-c3ccc4ccccc4c3)csc2=Nc2cccc(C(F)(F)F)c2)cc1OC,109
O=c1ccn(-c2cccc(F)c2)nc1-c1nc(-c2ccc(OCc3ccccc3)cc2)no1,103
CCOC(=O)C1=C(c2ccccc2)N=C2SCC(=O)N2C1c1ccc(OC)cc1 (stereo not drawn),105
O=C(CSc1n[nH]c(-c2ccco2)n1)N1CCCCC1,103
CC1CCN(C(=O)N2CCC(CN(C)C)CC2)CC1,107
CCCCNC(=O)c1cn(C)nc1S(=O)(=O)N1CCC(C)CC1,100
COc1ccc(OC)c(NC(=O)CSc2nc3n[nH]c(C)c3c(=N)n2-c2ccc(Cl)c(C)c2)c1,99
Cn1nc(COCc2ccccc2)c2c1CCN(S(=O)(=O)c1ccc3c(c1)CCC3)C2,102
O=S(=O)(c1cccn2c(SCc3cccc(Cl)c3)nnc12)N1CCCC1,99
Cc1ccc(NC(=O)c2c(O)c3cccc4c3n(c2=O)CCC4)c(Br)c1,110
CC1(C)CC(=O)C2=C(C1)N(c1ccc(Br)cc1)C(N)=C(C#N)C2c1ccsc1 (stereo not drawn),113
O=C(NCC1CCCO1)N1CCOc2ccccc21 (stereo not drawn),101
Cc1c(C)n(-c2ccccc2)c2nc(C(=O)Nc3ccc(F)cc3Cl)nc(N3CCCC3)c12,99
O=C(Nc1ccc(Cl)c(Cl)c1)c1ccc(F)c(S(=O)(=O)NCC2COc3ccccc3O2)c1 (stereo not drawn),105
CCOc1cccc2c1OC(c1ccc(C(=O)OC)cc1)N1N=C(c3cccc(OC)c3)CC21 (stereo not drawn),103
Cc1cc(S(=O)(=O)n2nnc3ccccc32)c(Cl)cc1Cl,104
Cc1cccc(C(=O)Nc2c(C)nc3sc(C)cn3c2=O)c1,99
C=CCOc1cccc(C2Nc3ccc(C)cc3[C@H]3OCC[C@@H]23)c1 (stereo partly drawn),98
CCC(C)(C)NS(=O)(=O)c1cc(-c2nc(C)cs2)n(CC(=O)N2CCCC2)c1,105
COc1ccc(OCc2nc(-c3ccc(NS(=O)(=O)c4ccc(Cl)cc4)cc3)no2)cc1,104

# Compounds from the list above with a COOH group:
molecule,GIV Gai3 FP
CCCCC(=O)Nc1cnc(N2CCN(CCOc3ccc(Cl)cc3)CC2)c(C(=O)O)c1,108
CCC(=O)Nc1cnc(N2CCN(C(c3ccccc3)c3ccc(Cl)cc3)CC2)c(C(=O)O)c1 (stereo not drawn),116
Cc1ccc2c(c1)[C@H]1OCCC[C@H]1C(c1ccc(C(=O)O)cc1)N2 (stereo partly drawn),106
